Source: PubChem BioAssay
S aureus helic – S. aureus DNA helicase inhibition. purified S. aureus helicase, fluorescence unwinding assay; about half of the hits fall short of the stated cut. inhibition, %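 (tested at about 80 µM)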. hit rate 0.05% among 120,000. AID 485395;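 active = both duplicates at 50% or more, or one of them with a favoured structure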;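 also: 0% = mean of negative control wells and 100% = mean of positive control wells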
MgrA DNA FP – modulators of Staphylococcus aureus MgrA DNA binding; hit rate 0.13% among 84,000; AID 602314; inhibition, %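 (about 10 µg/mL by stock and volumes)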; fluorescence polarization;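 active = above 50% in either of two replicates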;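 also: 0% = protein plus DNA without compound and 100% = DNA alone without protein; higher means less MgrA bound to DNA so lower polarization; one replicate is shown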
* marks the source's active call; other numbers are inactive results; x = not tested or not shown.

SMILES	S aureus helic	MgrA DNA FP
CC(Oc1ccccc1F)C(=O)NC1CCS(=O)(=O)C1 (stereo not drawn)	17.0	x
CCc1nonc1NC(=O)c1ccccc1	6.0	x
CC(C)NC(=O)COc1ccc(Cl)cc1Cl	2.0	-6.0
N#Cc1ccc(C(=O)CSc2n[nH]c(=O)n2Cc2ccco2)cc1	-13.0	x
O=C(NCc1ccccc1)C(c1ccc(F)cc1)N(Cc1ccco1)C(=O)c1ccccn1 (stereo not drawn)	2.0	-1.6
N#CC1=C(NC(=O)c2ccc(Cl)c(Cl)c2)CCC1	4.0	1.9
Cc1n[nH]c(C)c1CC(=O)NCCc1ccccc1	14.0	x
O=S(=O)(c1ccc2c(c1)OCCCO2)N1CC=C(c2ccccc2)CC1	x	1.3
O=C(NC1CCCCCC1)c1csc2c1CCCC2	15.0	-1.1
CC(O)CNc1nc2ccccc2n1CC(=O)NC(C)C(C)C (stereo not drawn)	8.0	x
Clc1ccc(-c2ccn[nH]2)cc1	x	1.7
COc1cc2c(cc1OC)CN(CC#N)CC2	14.0	0.0
CCOC(=O)C(C(=O)O)c1ccccc1 (stereo not drawn)	x	-1.3
Nc1c(C(=O)O)cnn1-c1ccccc1	-3.0	x
CCOC(=O)/C=C1\CCC(/C=N/Nc2ccccc2)=C1N1CCOCC1	-32.0	x
CC(NC(=O)c1ccccc1-c1ccccc1C(=O)O)c1ccccc1 (stereo not drawn)	-18.0	x
Cc1c(OCC(=O)Nc2ccc(Cl)cc2C(=O)c2ccccc2Cl)ccc2c1OC(C)(C)CC2=O	x	1.9
COc1ccc(-c2nn(-c3ccc(C)c(Cl)c3)c3c2cnc2ccc(F)cc23)cc1OC	11.0	0.4
O=C(c1cnn(-c2nc3ccccc3s2)c1)c1ccccc1O	-9.0	x
CN(C)C(=O)CSc1nc(C(C)(C)C)cs1	11.0	3.7
Cc1cc(C)c(C2=NON3N(C(=O)c4ccc(S(=O)(=O)N5CCOCC5)cc4)c4ccccc4N23)c(C)c1	16.0	x
C=CCN1C(=O)/C(=C2\SC(C)=C(C)N2c2nccs2)S/C1=N\S(=O)(=O)c1ccccc1	-17.0	x
COc1ccccc1CNn1c(C)nnc1SCc1ccccc1F	10.0	0.6
O=C(O)c1cc(Nc2ccccc2C(=O)O)nc(Nc2ccccc2C(=O)O)n1	1.0	x
O=C(c1ccc(=O)[nH]n1)N1CCN(c2ccccc2)CC1	-11.0	x
O=C(COC(=O)Cc1ccc(-c2ccccc2)cc1)NCc1ccco1	14.0	4.1
Cc1cccc(NC(=O)CS(=O)(=O)c2cn(C)c3ccccc23)c1C	10.0	2.8
Cn1c(C(O)C(O)c2ccccc2)nc2ccccc21 (stereo not drawn)	2.0	x
O=C1CCC(=O)N1CCc1c[nH]c2ccc(OCc3ccccc3)cc12	0.0	1.1
CCCCN1C(=O)C(O)(CC(=O)c2ccccc2)c2ccccc21 (stereo not drawn)	-2.0	-0.1
Cn1c(=N)n(CC(=O)c2ccco2)c2ccccc21	-22.0	x
O=C(COc1ccc2c(c1)OCO2)Nc1cc(Cl)cc(Cl)c1	0.0	-1.8
CCSc1ccc2nnc(-c3ccc(OC)cc3)n2n1	12.0	-1.8
CCCCn1c(N)c(N(Cc2ccccc2)C(=O)COc2ccccc2F)c(=O)[nH]c1=O	-3.0	x
COc1cc(/C=C2\SC(=S)N(CC(=O)Nc3nnc(CC(C)C)s3)C2=O)cc(OC)c1OC	x	-0.8
COc1ccc(-c2cc(C(F)(F)F)n3nc(C(=O)Nc4cccc(C(C)=O)c4)cc3n2)cc1OC	x	0.2
O=C(Nc1ccc(F)cc1)N1CCN(c2ccc3nnc(-c4ccccc4)n3n2)CC1	13.0	x
CN(C)C(=O)c1cnc(Cl)c2ccccc12	x	-4.4
CC(=O)Nc1nc2ccccc2s1	-3.0	1.6
COc1ccc(-c2nn(CN3CCCC3)c(=S)n2CC(C)C)cc1	10.0	x
O=C(NC1CCS(=O)(=O)C1)c1ccccc1C(=O)c1ccccc1 (stereo not drawn)	5.0	-2.0
O=S(=O)(c1ccc(Br)cc1)N1CCC(N2CCCCC2)CC1	-22.0	x
Cc1cc(NC(=O)Nc2ccccc2)n(C(C)(C)C)n1	x	-0.7
Cc1c(OCc2ccc(C(=O)O)o2)ccc2c(-c3ccccc3)cc(=O)oc12	18.0	x
O=C(CN(Cc1ccco1)C(=O)c1cc(=O)[nH]c2ccccc12)Nc1ccccc1C(F)(F)F	-4.0	x
CCOc1ccc2cc(C3CC(c4ccc(C)cc4)=NN3C(=O)CCC(=O)O)c(=O)[nH]c2c1 (stereo not drawn)	x	-1.8
O=C1N=C(N2CCCCC2)S/C1=C\c1cccs1	10.0	-2.4
O=C(NC1CCCC1)c1ccc2c(=O)n(Cc3ccco3)c(=O)n(Cc3cccc(Cl)c3)c2c1	-22.0	x
COc1ccc(S(=O)(=O)N(Cc2cc3cc4c(cc3[nH]c2=O)OCCO4)C2CCCC2)cc1	7.0	0.4
CC1CN=C(N(C(=O)Nc2ccccc2)c2cccc(C(F)(F)F)c2)S1 (stereo not drawn)	5.0	2.2
N#Cc1c(N)n(CCN)c2nc3ccccc3nc12	-24.0	-6.3
Cc1ccc(OC(=O)c2cc3c(C)nn(-c4ccccc4)c3s2)cc1	21.0	x
CCC(C)c1ccc(-n2c(=O)c3ccccc3n3c(SCC(=O)NC)nnc23)cc1 (stereo not drawn)	-19.0	x
COCc1cc(C)nc2sc3c(c12)NCN(c1ccccc1)C3=O	-4.0	x
Cc1ccccc1Cn1nc(-c2ccc3c(c2)OCO3)ccc1=O	11.0	x
CC(C)c1ccc(CNC(=O)c2ccc(=O)[nH]c2)cc1	-3.0	-5.2
CC(=O)Nc1cccc(-c2csc(Nc3cccc(O)c3)n2)c1	9.0	-7.7
COc1ccccc1NC(=O)C(C)Nc1ccccc1SC (stereo not drawn)	18.0	x
Cc1c2c(n3c(nc4ccccc43)c1C#N)N(Cc1cccnc1)CC2	-17.0	x
CSc1ncccc1C(=O)OCc1cccc(C(F)(F)F)c1	8.0	0.1

Next section
SMILES	S aureus helic	MgrA DNA FP
CC(=O)Oc1ccc(OC(C)=O)c(S(=O)(=O)c2ccc(Cl)c(Cl)c2)c1	10.0	0.1
Cc1ccc(CNc2ccc3c(c2)ncn3C2CCCCC2)cc1	-7.0	0.7
CCOc1ccc(OCCCCN(C)C)cc1	22.0	-6.2
COc1ccc(C2=NN3C(C2)c2ccccc2OC3c2ccc(OCc3ccccc3)cc2)cc1 (stereo not drawn)	x	-2.0
CC1(C)CNC(=O)c2sc(NC(=O)c3ccccc3Cl)nc2C1	10.0	-0.2
Cc1cc(C)nc(SC2=C(Nc3ccc(O)cc3)C(=O)N(Cc3ccccc3)C2=O)n1	11.0	x
CCN(Cc1nnc(-c2ccccc2)o1)C1CCCCC1	6.0	x
CCCN1Cc2cccc(C(=O)Nc3ccc(S(=O)(=O)N4CCCCCC4)cc3)c2C1=O	6.0	1.7
COC(=O)c1nc(S(C)(=O)=O)ncc1Cl	18.0	x
CCCNc1c(NS(=O)(=O)c2ccc3[nH]c(=O)oc3c2)c(=O)oc2ccccc12	-18.0	x
O=C(Cc1ccccc1)N=Nc1c(O)[nH]c2ccccc12	8.0	1.5
CCOc1ccc(C)cc1S(=O)(=O)n1c(C)nc2ccccc21	-18.0	x
CCOC(=O)C1=C(C)N=c2s/c(=C/c3cc(OC)c(OC)c(OC)c3)c(=O)n2C1c1cc(OC)ccc1OC (stereo not drawn)	x	-0.1
CCOC(=O)c1sc(SCc2ccc(Cl)cc2)c2c1CC/C(=C\N(C)C)C2=O	x	8.9
CCN(CC)Cc1ccc(NC(=O)c2cccc(C)c2)cc1	9.0	5.5

A draw from above in order of molar mass, largest number first:
SMILES	S aureus helic	MgrA DNA FP
CCOC(=O)C1=C(C)N=c2s/c(=C/c3cc(OC)c(OC)c(OC)c3)c(=O)n2C1c1cc(OC)ccc1OC (stereo not drawn)	x	-0.1
COc1ccc(C2=NN3C(C2)c2ccccc2OC3c2ccc(OCc3ccccc3)cc2)cc1 (stereo not drawn)	x	-2.0
CCCN1Cc2cccc(C(=O)Nc3ccc(S(=O)(=O)N4CCCCCC4)cc3)c2C1=O	6.0	1.7
CCOC(=O)c1sc(SCc2ccc(Cl)cc2)c2c1CC/C(=C\N(C)C)C2=O	x	8.9
Cc1cc(C)nc(SC2=C(Nc3ccc(O)cc3)C(=O)N(Cc3ccccc3)C2=O)n1	11.0	x
CCCNc1c(NS(=O)(=O)c2ccc3[nH]c(=O)oc3c2)c(=O)oc2ccccc12	-18.0	x
CC(=O)Oc1ccc(OC(C)=O)c(S(=O)(=O)c2ccc(Cl)c(Cl)c2)c1	10.0	0.1
CC1(C)CNC(=O)c2sc(NC(=O)c3ccccc3Cl)nc2C1	10.0	-0.2
Cc1c2c(n3c(nc4ccccc43)c1C#N)N(Cc1cccnc1)CC2	-17.0	x
Cc1ccc(CNc2ccc3c(c2)ncn3C2CCCCC2)cc1	-7.0	0.7
COc1ccccc1NC(=O)C(C)Nc1ccccc1SC (stereo not drawn)	18.0	x
CCN(CC)Cc1ccc(NC(=O)c2cccc(C)c2)cc1	9.0	5.5
CCN(Cc1nnc(-c2ccccc2)o1)C1CCCCC1	6.0	x
O=C(Cc1ccccc1)N=Nc1c(O)[nH]c2ccccc12	8.0	1.5
COC(=O)c1nc(S(C)(=O)=O)ncc1Cl	18.0	x
CCOc1ccc(OCCCCN(C)C)cc1	22.0	-6.2

The results go on:
SMILES	S aureus helic	MgrA DNA FP
CCN(Cc1ccncc1)C(=O)CC1(CC(=O)O)CCCC1	8.0	-1.0
CCCc1cnc(N2CCCN(S(=O)(=O)c3ccc(C)cc3)CC2)nc1	x	0.1
Cc1cc(C(F)(F)F)nc(SCCNC(=O)c2ccccc2F)n1	7.0	0.6
O=C(COC(=O)/C=C/c1cccs1)Nc1nc2ccccc2s1	-11.0	x
CN(C(=O)c1cccc(NC(=O)[C@H]2[C@@H]3C[C@@H]4[C@H]2C(=O)O[C@@H]4C3)c1)c1ccccc1	1.0	0.7
O=C(OCC(=O)N(Cc1ccccc1)C1CCS(=O)(=O)C1)c1ccc(-n2cnnn2)cc1 (stereo not drawn)	-4.0	x
CCn1nc(C)cc1/C(N)=N/O	x	0.0
Brc1cnc(-n2cccc2)nc1	x	0.8
Nc1ncc(OCc2ccccc2)c(=O)[nH]1	x	3.9
O=C(N/C(=C\c1ccc(F)cc1)C(=O)N1CCOCC1)c1ccccc1	5.0	-0.5
Cc1cc(-n2c(SCC(=O)N3CCCC3)nc3n[nH]c(C)c3c2=N)ccc1Cl	10.0	x
Cc1ccc(C)n1-c1ccc(-n2cccc2)cc1	x	-1.8
Nn1c(C(=O)NCc2cccnc2)nc2ccccc2c1=O	x	-1.0
Cc1ccc(C)c(Oc2ncnc3c2oc2ccccc23)c1	2.0	x
Cc1cccc(NC(=O)C2COc3ccccc3O2)n1 (stereo not drawn)	-4.0	x
OC(c1c(F)c(F)c(F)c(F)c1F)c1c(F)c(F)c(F)c(F)c1F	14.0	x
CCOC(=O)N1CCC(n2c(SCC(=O)NC(C)CC)nc3ccccc3c2=O)CC1 (stereo not drawn)	3.0	0.4
COC(=O)Cc1c(C)c2ccc(OC(C)C)cc2oc1=O	10.0	2.4
CN(C)C(=O)c1cccc2c1-c1ccccc1C2	21.0	x
Cc1ccc(S(=O)(=O)c2nc(N3CCN(c4ccccc4)CC3)sc2Cl)cc1	6.0	x
CCCCCCN(CCCCCC)c1ccc(C(=O)O)cc1	x	0.5
COC(=O)CN1C(c2ccc(OC)cc2)=Nc2ccc(Cl)cc2C1c1ccccc1 (stereo not drawn)	11.0	0.7
Cc1ccc(NC(=O)COc2ccc(/C=c3/sc4n(c3=O)CCN=4)cc2)cc1	6.0	1.4
O=C1SCCC1NS(=O)(=O)c1ccc(Cl)c(Cl)c1 (stereo not drawn)	5.0	x
CCC12CN(C(=O)c3ccco3)CC(CC)(CN(C(=O)c3ccco3)C1)C2=O	-17.0	x
O=C(CN1C(=O)CCc2ccccc21)NC1CCCCC1	-2.0	0.6
CCOC(=O)c1c2c3c(c(Cl)ccc3[nH]c1=O)C(=O)c1ccccc1-2	1.0	1.6
CCn1c(-c2ccc3c(c2)OCCO3)cnc1SCC(=O)Nc1sccc1C#N	-11.0	x
COc1ccc(CN(C(=O)CN2C(=O)COc3ccccc32)C2CCCC2)c(OC)c1	5.0	2.3
O/N=C/c1ccco1	12.0	x
O=C(c1ccno1)n1nccc1-c1cc(-c2ccccc2)no1	x	-0.1
CCN(CC)C(=O)NCC1CCCO1 (stereo not drawn)	5.0	1.2
CCN1CCN(Cc2ccc(NC(=O)c3ccc4c(c3)N(CC)CCS4)cc2)CC1	18.0	x
CCCCCCCc1nc2c(=O)[nH]c3ccccc3c2o1	9.0	x
CCCCOc1ccc(C(=O)OC(C)CN(C)C)cc1 (stereo not drawn)	-12.0	x
Cn1nc(-c2ccc(Br)s2)c(Br)c1C(F)(F)F	18.0	x
O=C(NCc1ccccc1)c1ccc(CN2CC(=O)N3CCCCC3C2=O)cc1 (stereo not drawn)	17.0	x
CC(=O)NCCNc1nc(-c2cccnc2)nc2ccccc12	-12.0	x
CC(C)C1Nc2ccc(C(=O)O)cc2C2C=CCC21 (stereo not drawn)	2.0	21.4
CC1=C(C(=O)C(F)(F)F)CCC(=O)N1C1CCCCCC1	-12.0	x
CC1CCCN(C(=O)c2cc3ccccc3oc2=O)C1 (stereo not drawn)	-3.0	-1.4
N/C(Cc1ccccc1)=N\O	x	0.3
O=c1oc2ccccc2c2c1ncn2-c1ccccc1	8.0	-0.7
FC(F)(F)C1=Nc2ccccc2N(c2ccc(Cl)c(Cl)c2)C1	-4.0	1.3
Cc1cnc(C(=O)OCc2cc(=O)n3ccsc3n2)cn1	0.0	x
O=C(CSc1ncnc2ccccc12)NC1CCCC1	-16.0	x
Oc1c(C(c2ccccc2)N2CCCCC2)sc2ncnn12 (stereo not drawn)	13.0	x
CCCNC(=O)N1CCCCC1C (stereo not drawn)	-20.0	2.2
COc1cccc(NC(=O)CCN2CC(C)CC(C)C2)c1 (stereo not drawn)	-2.0	0.8
c1ccc2sc(N3CN(CCN4CCOCC4)CN(c4nc5ccccc5s4)C3)nc2c1	-22.0	x
COc1ccc(OCCSc2ncn[nH]2)cc1	6.0	x

Some of the compounds tested. The share of hits here may be higher or lower than overall.
